Rango dissoc inh: qHTS Assay for Inhibitors of RanGTP induced Rango (Ran-regulated importin-beta cargo) - Importin beta complex dissociation | Snurportin-1 (Homo sapiens) + GTP-binding nuclear protein Ran (Homo sapiens) + Importin … | Biochemical FRET Rango-importin beta, RanGTP-induced dissociation | Potency, µM (doses to about 46.1 µM), for the others: at the highest dose activity change, negative = inhibition | 340,000 compounds, 0.071% hits | AID 540253, 2011; active means falling FRET ratio curve, often poorly fitted, with flat reads before Ran was added; inconclusive means other falling curves, or compound fluorescence or quenching; inactive means flat or rising ratio curve;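 also: potency is read from the fitted curve at half-maximal effect; % of control where 0% means no effect; nearly all actives have a fitted effect of over 45% in size; -100% = wells without RanGTP and RCC1; the record marks most hits as doubtful in a second field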
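FRET read at 45 min, room temperature: inhibitors block the CFP/YFP signal rise when RanGTP (0.6 uM Ran, 2 mM GTP, 0.2 uM RCC1) frees Rango (0.1 uM) from importin beta (0.25 uM). Pre-read after 5 min compound exposure flags interference.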
miR-21 FLuc: qHTS Assay for Modulators of miRNAs and/orActivators of miR-21. HeLa miR-21 FLuc reporter, luciferase, 48 h. Potency, µM (highest dose often 38.3 µM), for inactives: at the highest dose reporter change, positive = more light. 340,000 tested, under 10 active. AID 2288, 2010; active = well fitted rising curve with a large enough effect; inconclusive = small, poorly fitted or top-dose-only effect; inactive = no such curve, though single readings can be large or run the other way;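 also: % of control where 0% means no effect; miR-21 action dims this reporter so a rising signal means less miR-21 action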
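HeLa cells endogenously expressing miR-21, stably carrying CMV-driven firefly luciferase with a downstream miR-21 binding site, 2000 cells/well. Titrations up to approximately 40 uM, 48 hours; luciferase luminescence read.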
Rango-impB inh: qHTS Assay for Inhibitors of Rango (Ran-regulated importin-beta cargo) - Importin beta complex formation; Importin subunit beta-1 (Homo sapiens), Q14974; Rango CFP/YFP FRET sensor + importin beta, 45 min; Potency, µM (doses to about 92.2 µM), inactives show at the highest dose inhibition of complex formation; 340,000 compounds, 0.031% hits; AID 540263, 2011; active = rising FRET ratio curve, often small or poorly fitted; inconclusive = mostly compound fluorescence or quenching in the first reads; inactive = flat curves in all reads;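 also: potency is read from the fitted curve at half-maximal effect; 0% = DMSO wells and 100% = buffer wells lacking importin beta; nearly all actives have a fitted effect of over 15% in size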
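FRET biosensor (snurportin 1 IBB flanked by EYFP and cerulean), 50 nM, with compound 5 min, then 0.125 microM importin beta in PBS, 1 mM DTT, 0.02% Tween-20, 0.1% BSA. CFP/YFP ratio read after 45 min at room temperature; pre-read flags interference.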
GLA inh pH 4.5: qHTS Assay for Inhibitors of Human alpha-Galactosidase at pH 4.5. purified enzyme, 4-MU-alpha-Gal fluorescence, pH 4.5. activity change, negative = inhibition, % at 105 µM. AID 1467, 2008. 230,000 tested, under 10 active; inconclusive = small, poorly fitted or top-dose-only inhibition, or a rising curve; inactive = flat fitted curve, though single readings scatter; no compound was filed as active;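 also: 0% = full activity with enzyme and -100% = basal without enzyme; dose as in the result columns while the protocol names 77 µM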
Target sequence (P06280 whole entry, looked up): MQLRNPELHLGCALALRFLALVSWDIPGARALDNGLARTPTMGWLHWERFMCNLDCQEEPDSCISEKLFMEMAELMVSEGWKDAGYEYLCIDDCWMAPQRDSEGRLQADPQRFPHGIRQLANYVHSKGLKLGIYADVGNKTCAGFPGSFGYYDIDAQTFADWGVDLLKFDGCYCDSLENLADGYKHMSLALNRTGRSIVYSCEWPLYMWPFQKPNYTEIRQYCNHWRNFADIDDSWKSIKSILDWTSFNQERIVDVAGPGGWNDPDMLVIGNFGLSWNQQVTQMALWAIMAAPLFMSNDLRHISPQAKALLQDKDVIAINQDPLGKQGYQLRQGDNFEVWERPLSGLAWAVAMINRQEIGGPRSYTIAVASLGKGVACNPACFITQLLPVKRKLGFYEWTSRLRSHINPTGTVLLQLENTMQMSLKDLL
* marks the source's active call; other numbers are inactive results; ? = inconclusive; . = not tested or not shown; & = joins results of further samples; [ ] = another dose, or the depositor's remark. The list is partial. The share of hits here may be higher or lower than overall.

| Rango dissoc inh | miR-21 FLuc | Rango-impB inh | GLA inh pH 4.5 | Compound |
| --- | --- | --- | --- | --- |
| -7.8% | ? | ? | -4.9 | O=C(NCc1cccnc1)/C(=C/c1ccc(-c2ccc(Cl)cc2)o1)S(=O)(=O)c1ccccc1 |
| 3.6% | -3.6% | 1.3% | 2.2 | O=C(Nc1cnn(Cc2ccc(Cl)cc2Cl)c1)c1cc(-c2cccs2)on1 |
| -0.1% | -41.4% | 0.3% | . | Cc1cc(=O)oc2cc(NC(=O)c3cccc(S(C)(=O)=O)c3)ccc12 |
| 0.4% | -47.8% | -3.6% | . | NC(=O)c1ccc(CSc2nc3ccccc3s2)cc1 |
| 11.1% | -8.0% | 1.0% | -2.3 | c1ccc2c(c1)ccc1ncccc12 |
| -14.7% | -12.4% | 0.3% | 7.6 | COc1ccc(CN2CCN(S(=O)(=O)c3ccc(NC(C)=O)cc3)CC2)cc1OC |
| -7.4%&4.9% | -8.4% | -2.1%&-2.8% | 8.2 | Cc1csc(=Nc2c(C)n(C)n(-c3ccccc3)c2=O)n1Cc1ccccc1 |
| -12.0% | -2.6% | -0.7% | . | COC(=O)[C@@H](NCc1cccc(CN[C@H](C(=O)OC)c2ccccc2)c1)c1ccccc1 |
| 5.5% | 22.2% | ? | -1.6 | CCCCNC(=S)Nc1ccccc1Cc1ccccc1 |
| 6.9% | -2.1% | -2.0% | . | Cc1ccccc1-n1nc2c(c1NC(=O)c1ccco1)CS(=O)(=O)C2 |
| -14.7% | -4.0% | -3.5% | -5.2 | COc1ccc(C(=O)N2CCN(S(=O)(=O)c3cc(Cl)ccc3OC)CC2)cc1 |
| 0.6% | . | 2.0% | . | COc1cc(OC)cc(OC(=O)C2CCN(C3=NS(=O)(=O)c4ccccc43)CC2)c1 |
| -3.2% | -14.8% | 1.2% | 2.2 | O=C(OCC(=O)N1N=C(c2ccc(Cl)cc2)CC1c1ccco1)c1ccco1 (centres undefined) |
| -1.9% | -23.6% | -0.5% | 12.1 | O=C(NC(=S)NCCN1CCOCC1)c1cccc(Cl)c1 |
| 29.7% | -0.2% | -0.3% | -8.4 | CCOc1ccccc1C1CC(=O)Nc2c1c(=O)n(C)c(=O)n2C (centres undefined) |
| -12.1% | -1.0% | 1.3% | . | CCN(CC)CCn1c2ccccc2c2nc3ccccc3nc21 |
| 1.1% | 16.4% | 0.5% | -6.8 | O=C(C1CCCN(S(=O)(=O)Cc2ccccc2)C1)N1CCC(Cc2ccccc2)CC1 (centres undefined) |
| -10.2% | 0.0% | -2.2% | -8.4 | O=C(CN(C1CCCCC1)S(=O)(=O)c1ccc(F)cc1)NCc1ccncc1 |
| -4.6% | 0.6% | -0.3% | 5.1 | O=S(=O)(c1ccc(S(=O)(=O)N2CCN(C/C=C/c3ccccc3)CC2)cc1)N1CCCC1 |
| 1.0% | 6.5% | 2.6% | . | COCC(=O)N1CCC(Oc2cccc(C(=O)NCc3ccccn3)c2)CC1 |
| 6.5% | 0.5% | -2.0% | . | O=C(NNC(=O)c1ccc(S(=O)(=O)N2CCCCC2)cc1)c1ccccc1 |
| 14.1% | 0.0% | -2.2% | . | CC(C)=CC(=O)N1CCC(N2CCC(C(=O)NCC3CCCO3)CC2)CC1 (centres undefined) |
| 6.5% | 0.2% | -2.7% | -21.7 | COc1ccccc1NC(=S)NCCc1ccc(F)cc1 |
| 10.3% | -8.0% | -1.1% | -1.4 | CCC(C)Sc1nc2c(c(=O)[nH]c(=O)n2C)n1CCc1ccccc1 (centres undefined) |
| 23.0% | -12.4% | 3.8% | -5.2 | O=C(NNS(=O)(=O)c1ccccc1F)c1sccc1-n1cccc1 |
| 20.3% | . | 4.6% | . | COc1ccc(S(=O)(=O)N2CCOC23CCN(S(=O)(=O)c2cc(C)ccc2OC)CC3)cc1 |
| -0.9% | -32.6% | 7.7% | . | Fc1ccccc1OCCn1c(=S)[nH]c2ccccc21 |
| -2.3% | -11.5% | -2.3% | 11.2 | CCN(CC)S(=O)(=O)c1cc(-c2nn(C)c(=O)c3ccccc23)ccc1C |
| ? | -10.8% | ? | -6.5 | CCOC(=O)C1CCN(c2nc3c(C)cccn3c(=O)c2/C=C(\C#N)S(=O)(=O)c2ccccc2)CC1 |
| -0.1% | 0.8% | 0.7% | 14.8 | CC(C)[C@@H]1NC(=O)c2cc([N+](=O)[O-])cc(I)c2NCCC[C@@H](C(N)=O)NC(=O)[C@H](CO)NC1=O |

4 entries from above, with bars between the fields.
Compound | Rango dissoc inh | miR-21 FLuc | Rango-impB inh | GLA inh pH 4.5
CCC(C)Sc1nc2c(c(=O)[nH]c(=O)n2C)n1CCc1ccccc1 (centres undefined) | 10.3% | -8.0% | -1.1% | -1.4
O=C(NNS(=O)(=O)c1ccccc1F)c1sccc1-n1cccc1 | 23.0% | -12.4% | 3.8% | -5.2
COc1ccc(S(=O)(=O)N2CCOC23CCN(S(=O)(=O)c2cc(C)ccc2OC)CC3)cc1 | 20.3% | . | 4.6% | .
Fc1ccccc1OCCn1c(=S)[nH]c2ccccc21 | -0.9% | -32.6% | 7.7% | .

Next part
| Rango dissoc inh | miR-21 FLuc | Rango-impB inh | GLA inh pH 4.5 | Compound |
| --- | --- | --- | --- | --- |
| 1.6% | . | 0.5% | . | COc1ccccc1N(Cc1ccccc1)S(=O)(=O)c1cccc(C(=O)Nc2ccc(C)cn2)c1 |
| 0.6% | -1.2% | 0.6% | -9.6 | COCCN(CC(=O)Nc1ccccc1C)S(=O)(=O)c1ccc(S(=O)(=O)N2CCCC2)cc1 |
| -14.8% | -3.8% | 1.2% | 1.4 | COc1ccc(-c2nnc3sc(C(C)N4C(=O)c5ccccc5C4=O)nn23)cc1 (centres undefined) |
| 9.8% | -2.1% | -2.0% | . | O=C(O)CSCC(=O)N1CCCN(c2ccc(C(F)(F)F)cn2)CC1 |
| -2.0% | -1.0% | 0.3% | ? | Nc1nc2ncc(CNc3ccc(C(=O)N[C@@H](CCC(=O)O)C(=O)O)cc3)nc2c(=O)[nH]1 |
| 6.1% | -2.2% | -3.0% | -14.3 | O=C(NCc1ccccc1)c1cnc2n(c1=O)CCS2 |
| 4.4% | 13.6% | 0.5% | -10.8 | CC1CCCCC1NS(=O)(=O)c1ccc(S(=O)(=O)NCc2ccncc2)cc1 (centres undefined) |
| 8.8% | -15.0% | -5.5% | -0.4 | Cc1oc(-c2ccccc2Cl)nc1CS(=O)CC(=O)NCc1cccs1 (centres undefined) |
| 14.6% | -1.6% | 2.1% | 3.5 | CCn1nc(C)c(NC(=O)c2ccc(Cl)cc2)c1C |
| -6.4% | -10.0% | -4.0% | 0.5 | CCC1(CC)Cc2ccccc2C(N)=C1C#N |
| 4.3% | -3.0% | -1.2% | 4.9 | O=C(O)c1ccc2c(=O)n3c(nc2c1)/C(=C/c1ccccc1C(F)(F)F)CCCC3 |
| -7.4% | -0.9% | -0.2% | 7.4 | CCCCn1c(SCC(=O)N2CCCC2)nc2cc(S(N)(=O)=O)ccc21 |
| 3.3% | -8.2% | 0.1% | -0.6 | O=C(CSc1nnc(-c2c[nH]c3ccccc23)o1)c1ccc(-c2ccccc2)cc1 |
| -2.1% | 0.4% | -4.0% | 0.6 | COC(=O)CN1C(=S)N(c2ccc(Cl)cc2)C(=O)C1CC(=O)Nc1ccc(F)cc1 (centres undefined) |
| 22.4% | -29.0% | 0.8% | . | CN(C)S(=O)(=O)c1cc(NC(=O)CNCc2ccccc2)ccc1Cl |
| -3.3% | -12.7% | -0.6% | -5.6 | O=C1c2ccccc2C(=O)N1CCN1CCCCC1 |
| -9.9% | . | -2.7% | . | COc1ccc([C@H]2CC(=O)C=C(c3ccc(OC)nc3)C2)cc1 |
| -16.4% | -12.7% | 8.9% | 4.1 | CCc1ccc(OCC(=O)N/N=C(\C)c2ccc(OC(F)F)cc2)cc1 |
| 0.0% | . | 3.8% | . | CC(=O)c1ccc(S(=O)(=O)N2CCN(c3nn(C)c(=O)n(C)c3=O)CC2)cc1 |
| -0.4% | 1.1%[7.66 µM] | -4.5% | -1.2 | CCc1nnc(NC(=O)CSc2nc3cccnc3n2Cc2ccccc2)s1 |
| -1.5% | -4.6% | 5.5% | 11.6 | Cc1cc(=O)cc(C)[nH]1 |
| 10.3% | -7.0% | -5.3% | 2.7 | CCNC(=S)NS(=O)(=O)c1ccccc1 |
| 8.5% | . | 1.3% | . | O=C(c1ccc(S(=O)(=O)NCc2ccco2)cc1)N1CCCC(C(F)(F)F)C1 (centres undefined) |
| -2.1% | . | -5.3% | . | O=C(c1ncn(Cc2ccccc2)c1C(=O)N1CCN(c2ccccc2)CC1)N1CCN(c2ccccc2)CC1 |
| 0.5% | -0.7% | -0.1% | 9.8 | CC(C)c1ccccc1NC(=O)Cn1c(-c2ccccc2Cl)nc2ccccc21 |
| 5.3% | -41.1% | -0.9% | -1.4 | CN(C)c1ccc(NC(=O)CCCc2ccccc2)cc1 |
| -3.7% | . | 0.2% | . | O=C(CN(Cc1ccccc1)C(=O)CCl)c1cccc(Br)c1 |
| ? | 3.7% | -10.4% | -8.8 | CC(C)C[C@H](NC(=O)c1nc[nH]c1C(=O)N(C)Cc1ccccc1)C(=O)OCc1ccccc1 |
| -4.6% | 5.3% | -0.2% | -6.8 | Cc1ccc2nsnc2c1S(=O)(=O)N(Cc1ccco1)Cc1cc2cccc(C)c2[nH]c1=O |
| -2.8% | . | 0.1% | . | N#CCC(=O)Nc1ccc(C(=O)OC(C(=O)Nc2ccc([N+](=O)[O-])cc2Br)c2ccccc2)cc1 (centres undefined) |
| 0.7% | -5.6% | 1.9% | 2.9 | CN(CC(=O)O/N=C(\N)c1ccccn1)S(=O)(=O)c1ccc(Br)cc1 |
| 1.1% | . | 0.6% | . | COC(=O)Nc1ccc(S(=O)(=O)N2CCCC(C(=O)NCC3CCCO3)C2)cc1 (centres undefined) |
| -8.0% | -0.7% | -0.6% | . | O=C(O)c1ccc(NC(=O)c2ccc3c(c2)C(=O)N(CC2CCCO2)C3=O)cc1 (centres undefined) |
| 0.0% | 1.9% | -2.5% | . | COc1ccccc1NS(=O)(=O)c1ccc2oc(N)nc2c1 |
| 8.8% | -3.2% | 0.2% | -1.2 | COC(=O)Cn1c(=NC(=O)C2COc3ccccc3O2)sc2cc(S(N)(=O)=O)ccc21 (centres undefined) |
| 6.2% | -13.5% | -1.2% | . | CN(CC(=O)Nc1ccc2c(c1)OCO2)S(=O)(=O)c1ccc(F)cc1 |
| 0.4% | -7.6% | 1.8% | -1.1 | CC(=O)Nc1ccc(N2CCN(C(=O)c3cccs3)CC2)cc1 |
| 2.6% | -30.8% | -8.1% | ? | C/C(=N\NC(=O)c1c(Cl)c(C)nn1C)c1cccc(NC(=O)COc2ccccc2)c1 |
| -3.2% | 4.6% | -4.6% | 2.8 | CCCOc1ccc(C(O)CCNC(CC(=O)O)c2ccccc2)cc1 (centres undefined) |
| 0.8% | 6.7% | 2.4% | 0.8 | COC(=O)c1cccc(NC(=O)CCc2cc(OC)c(OC)c(OC)c2)c1 |
| 2.0% | -16.5% | 1.2% | -2.9 | CCN(CC(=O)Nc1ccc2c(c1)OCCO2)Cc1cc(=O)oc2c(C)c(C)ccc12 |
| -10.7% | 1.6% | -0.7% | 1.2 | CCOC(=O)c1nc(Nc2ccccc2)c2ccccc2n1 |
| 10.1% | -5.7% | -1.0% | 2.3 | Cc1[nH]n(-c2ccccc2)c(=O)c1C=NCc1ccncc1 |
| -19.5% | -1.5% | 1.2% | -8.0 | CCOC(=O)c1ccc(NC(=O)C(=O)NCC2(c3ccc(OC)cc3)CCOCC2)cc1 |
| 15.7% | -30.1% | -2.3% | -4.5 | CS(=O)(=O)N(CC(=O)Nc1ccc2c(c1)OCO2)c1ccc(Cl)cc1 |
| 2.5% | -3.2% | -1.1% | . | Cc1cc(C)nc(CCNC(=O)CC2C(=O)NCCN2Cc2ccc(F)cc2Cl)n1 (centres undefined) |
